MARV entry inh = blocks Marburg virus binding to or entry into cells. Marburg virus pseudotyped entry inhibition, cell reporter; control for the full effect not named in the record; about a third of the inactives were read at about 46 µM. Potency, µM (series often up to 37.8 µM), inactives show top-dose activity change, negative = inhibition, usual class: inhibitors. 1.8% of 300,000 active. AID 540276; active = well fitted inhibition curve with a large enough effect; inconclusive = small, poorly fitted or top-dose-only effect, or effect the other way; inactive = flat fitted curve, though single readings scatter; tested in HEK293 cells; about a fifth of its hits are not listed in these tables; further: on the % scale 0 is the no-effect control and ±100 the full control effect; luciferase read-out
SARS PLP yeast = blocks SARS-CoV papain-like protease in a yeast assay; S. cerevisiae expressing SARS-CoV PLpro, growth rescue; control for the full effect not named in the record; Potency, µM (highest dose often 32.9 µM), for the others: at the top dose activity, positive = growth rescue; 0.19% of 330,000 active; AID 485353; active means well fitted rising curve with a large enough effect; inconclusive means small, poorly fitted or top-dose-only effect; inactive means no such curve, though single readings can be large or run the other way; further: 0% is about no effect; nearly all actives have a fitted effect of over 55% in size; growth read by luminescence after 48 h
RE007 growth inh = less growth of the S. pombe RE007 Vpr strain; S. pombe RE007 Vpr strain, BacTiter-Glo ATP luminescence, 24 h; control for the full effect not named in the record; Potency, µM (highest dose often 92.2 µM), for inactives: at the top dose activity change, negative = less growth; 0.21% of 360,000 active; active = well fitted falling curve with a large enough effect; inconclusive = small, poorly fitted or top-dose-only effect; inactive = no such curve, though single readings can be large or run the other way;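 further: on the % scale 0 is the no-effect control and ±100 the full control effect; nearly all actives have a fitted effect of over 50% in size; the assay follows cell death caused by Vpr and the record does not say whether a fall means rescue or toxicity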
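Fission yeast strain RE007, carrying one chromosomally integrated HIV-1 vpr copy, was seeded at OD 0.01 in PMG+AL medium with 23 nL pinned compound. After 24 h at 30 °C and 99% humidity, viability was read by BacTiter-Glo luminescence.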
Lassa entry inh = Lassa virus entry inhibition. Lassa virus pseudotype entry inhibition, cell reporter; control for the full effect not named in the record. Potency, µM (highest dose often 37.9 µM), without a hit: top-dose activity change, negative = inhibition, hits mostly inhibitors. 1.2% of 300,000 active. AID 540256; active means well fitted inhibition curve with a large enough effect; inconclusive means small, poorly fitted or top-dose-only effect, or effect the other way; inactive means flat fitted curve, though single readings scatter; tested in HEK293 cells; further: on the % scale 0 is the no-effect control and ±100 the full control effect; nearly all actives have a fitted effect of over 50% in size; luciferase read-out
2A StopGo = FMDV 2A StopGo reporter, luciferase signal | human cells with a luciferase reporter of 2A StopGo recoding; control for the full effect not named in the record | Potency, µM (doses to about 57.9 µM), without a hit: at the top dose signal change, negative = less light | 1.2% of 410,000 active | AID 1159524; active = well fitted falling curve with a large enough effect; inconclusive = small, poorly fitted or top-dose-only effect; inactive = no such curve, though single readings can be large or run the other way; tested in HEK293T cells; further: on the % scale 0 is the no-effect control and ±100 the full control effect; nearly all actives have a fitted effect of over 45% in size; luciferase light after 4 h
Cruzain noTriton = cruzain (T. cruzi) inhibition without detergent; purified cruzain, Z-FR-AMC fluorescence, no detergent; Potency, µM, inactives show max response, negative = inhibition, most hits filed as inhibitors; 2.3% of 200,000 active; P25779;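 further: plate controls were enzyme without inhibitor for no effect and buffer without enzyme for full effect; nearly all actives have a fitted effect of over 40% in size; top concentration of the series not given in the record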
Target sequence (P25779 123-467 limits assumed): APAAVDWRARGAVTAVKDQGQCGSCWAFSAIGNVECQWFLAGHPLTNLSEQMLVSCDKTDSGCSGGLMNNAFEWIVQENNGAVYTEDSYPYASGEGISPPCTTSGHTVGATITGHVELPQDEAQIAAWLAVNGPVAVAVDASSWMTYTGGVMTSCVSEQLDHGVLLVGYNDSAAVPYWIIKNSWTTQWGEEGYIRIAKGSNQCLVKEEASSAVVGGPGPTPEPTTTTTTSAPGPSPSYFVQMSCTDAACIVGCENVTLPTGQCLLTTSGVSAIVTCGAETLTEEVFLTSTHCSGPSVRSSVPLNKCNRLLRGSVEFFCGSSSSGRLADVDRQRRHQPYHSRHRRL
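Detergent-free condition (0.00005% Triton X-100) in acetate buffer pH 5.5 with DTT. 1.5 nM enzyme and compound were pre-mixed 15 min, then 2 uM Z-FR-AMC substrate added; reaction progress from fluorescence change between first and third reads (60 s).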
NS1 function inh = inhibitors of influenza NS1 protein function; 0.4% of 270,000 active; AID 2326; Potency, µM (doses to about 46.1 µM), without a hit: at the highest dose activity, positive = more growth; S. cerevisiae slowed by influenza A NS1, growth recovery by OD600; active means well fitted rising curve with a large enough effect; inconclusive means small, poorly fitted or top-dose-only effect; inactive means no such curve, though single readings can be large or run the other way; further: nearly all actives have a fitted effect of over 50% in size
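Recovery from NS1-induced slow growth read by OD600 in budding yeast switched to galactose assay medium (pH 6.0, -URA) at 1:100 dilution. Compound 23 nl per well; the matching strain lacking NS1 serves as control.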
Cruzain inh Det = inhibitors of Trypanosoma cruzi cruzain with detergent. purified cruzain, Z-FR-AMC fluorescence, 0.01% Triton. Potency, µM, for inactives: max response, negative = inhibition, most hits filed as inhibitors. AID 1478. 0.43% of 200,000 active;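 further: plate controls were neutral wells for no effect and buffer without enzyme for full effect; nearly all actives have a fitted effect of over 40% in size; top concentration of the series not given in the record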
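In this qHTS format, compounds are incubated with 1.5 nM cruzain for 15 min at room temperature before 2 uM Z-FR-AMC is added. Release of AMC is followed at 360/450 nm, and progress is taken as the 60 s fluorescence difference.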
Starred values were filed as active, the others as inactive; ? = inconclusive; . = not tested or not shown; [ ] = dose if it differs, or a comment. Unless noted, the call rests on the fitted dose curve; in most records, active means well fitted curve in the direction sought with a large enough effect; inconclusive means small, poorly fitted or top-dose-only effect, or another doubt; inactive means no such curve, though single readings can be large; an effect the other way counts as inactive or inconclusive. Potency means the concentration at half of the fitted maximal effect. The order is random; about 4.5% have a hit in one of these screens.

SMILES | MARV entry inh | SARS PLP yeast | RE007 growth inh | Lassa entry inh | 2A StopGo | Cruzain noTriton | NS1 function inh | Cruzain inh Det
Cc1ccc(C)c(CN2C(=O)C3CCCN3c3ccc(S(=O)(=O)N4CCOCC4)cc32)c1 (centres undefined) | -4% | ? | . | . | . | ? | 11% | -6.5%
Cc1cc2c(cc1S(=O)(=O)CCC(=O)N1CCC(C)CC1)OCC(=O)N2 | . | . | . | 5%[46.1 µM] | -17% | 23% | . | -2.8%
CNC(=O)NC(=S)NC(=O)c1ccccc1Cl | 30%[46.1 µM] | 1% | -1% | 7% | -9% | . | . | .
Cc1ccc(C2c3c(oc4ccccc4c3=O)C(=O)N2CCCN2CCOCC2)o1 (centres undefined) | 5% | -5% | -23% | -6% | -9% | 6% | 3% | -1.5%
COc1ccc2oc3c(c2c1)NC(=O)CN=C3c1ccccc1 | . | 1% | 0% | . | -1% | . | 2% | .
NC(N)=N/N=C/c1ccc(OCc2ccccc2)cc1 | ? | -2% | 1% | 2% | . | 5% | -7% | -2.9%
CCOc1ccc(C(=O)Nc2ccccc2CC)cc1[N+](=O)[O-] | ? | -12% | 0% | -8% | -5% | -6% | -21% | -4.0%
CCN1/C(=C2\C(=O)N(C)C(=S)N2c2ccccc2)C=Cc2ccccc21 | 2%[46.1 µM] | -1% | -28% | -1% | -4% | . | -13% | .
CC(=O)NC(NC(=S)N1CCCCCC1)C(Cl)(Cl)Cl (centres undefined) | ? | 3% | -14% | 0% | -4% | . | -3% | .
C[C@H](NC(=O)c1ccccc1Cl)C(=O)Nc1ccccc1F | -25%[46.1 µM] | 4% | 18% | -17% | 27% | . | 0% | .
CN1/C(=C\C(=O)c2cccnc2)Sc2ccccc21 | 6%[46.1 µM] | -2% | 1% | 27% | 8% | . | -52% | .
Cc1ccc(N=Cc2ccc(O)cc2O)cc1F | ? | 2% | -8% | -16% | -17% | -14% | -5% | -3.8%
COCCCNC(=O)CSC1=Nc2ccccc2C2=NC(Cc3c[nH]c4ccccc34)C(=O)N12 (centres undefined) | ? | 11% | 8% | -6% | 13% | -1% | 3% | 5.2%
CCOc1cc(-c2nnn(CC(=O)N3CCCCC3)n2)ccc1OC | . | -6% | 3% | . | 5% | . | -26% | .
O=C(COc1ccc(Cl)cc1)NCCCNC(=O)c1cnccn1 | 0%[46.1 µM] | 3% | 3% | -7% | -2% | . | 5% | .
CCCCOc1ccc(/C=C/C(=O)NCCc2nc3ccccc3[nH]2)cc1 | -17% | 1% | 5% | 17%[14.3 µM] | -19% | 3% | 4% | -16%
CN(CC(=O)Nc1ccc(Cl)cc1)C(=O)Cc1c(F)cccc1Cl | . | -2% | -3% | . | -2% | . | 10% | .
CN(CCC(=O)Nc1ccc2c(c1)OCO2)Cc1ccccc1 | -10% | 2% | -1% | 11% | . | 0% | -1% | 2.7%
CCCCCCOc1ccc(N2C(=O)CC(N3CCN(CCN=CC4C(=O)CC(C)(C)CC4=O)CC3)C2=O)cc1 (centres undefined) | -11%[46.1 µM] | -6% | -27% | -5% | ? | . | . | .
CCOc1ccccc1NC(=O)NC1CCN(CC(=O)Nc2ccc3c(c2)OCCO3)CC1 | -17% | -1% | -5% | -22% | -10% | -1% | -21% | -0.2%
Cc1cc(F)ccc1NS(=O)(=O)c1cccc2nsnc12 | -26% | -4% | 4% | 20% | 29% | . | 7% | .
CC(c1nccs1)N(C)C(=O)CCc1nnc(CCc2ccccc2)o1 (centres undefined) | ? | 1% | 4% | 8%[46.1 µM] | 9% | . | 1% | .
Cc1nnc(SCCN2CCOCC2)c2nn(-c3ccccc3F)c(C)c12 | ? | 5% | -9% | -10% | -21% | -10% | 4% | -6.5%
CCN(CC)CCNC(=O)c1sc2nc3n(c(=O)c2c1C)CCCCC3 | . | . | . | 10%[46.1 µM] | -2% | 19% | . | -1.4%
Cc1ccc(S(=O)(=O)Nc2cccc(-n3cnnn3)c2)cc1C | . | 0% | -5% | . | -4% | . | 7% | .
Next section:
SMILES | MARV entry inh | SARS PLP yeast | RE007 growth inh | Lassa entry inh | 2A StopGo | Cruzain noTriton | NS1 function inh | Cruzain inh Det
CCN1CCCC1CNc1ncnc2c1[nH]c1ccc(F)cc12 (centres undefined) | -18% | 1% | -6% | ? | -17% | ? | 5% | 25µM*
Cc1ccccc1OCc1nnc(SCC(=O)Nc2ccc3nc(SCC(=O)NC(C)(C)C)sc3c2)n1C | ? | 2% | 17% | ? | 35µM* | 12% | 3% | 0.0%
CCOc1ccc(NC(=O)CN(C)c2ccc(S(=O)(=O)N3CCOCC3)cn2)cc1OCC | -4% | 8% | -15% | 8% | ? | -2% | 7% | -1.7%
CCNc1c(NS(=O)(=O)c2ccc(Br)s2)c(=O)oc2ccccc12 | ? | -2% | 2% | -3% | -15% | . | 13% | .
CCCC[C@@H]1CNC(=O)C(=O)N1CCCc1cc(OC)c(OC)c(OC)c1 | . | 2% | -9% | . | 0% | . | 5% | .
Cc1cc(=S)cc(C)n1CCO | -3%[46.1 µM] | 16% | -30% | 6%[46.1 µM] | -7% | -8% | 2% | -15%
COc1cc(CNc2ccc3[nH]c(=O)[nH]c3c2)cc(Br)c1OCc1ccc(F)cc1 | ? | 2% | 7% | ? | ? | -16% | -1% | 2.5%
O=C(COC(=O)Cn1cnc2ccccc21)NCCC1=CCCCC1 | 2%[46.1 µM] | -2% | 6% | 16% | -8% | -1% | -2% | 2.3%
CC(C)CNC(=O)COc1ccc2c3c(c(=O)oc2c1)CCC3 | 1% | 1% | 5% | -17% | . | 1% | -69% | -3.9%
Cc1ccc(S(=O)(=O)N2CCCC2CNC(=O)C(=O)NCCN2CCOCC2)cc1 (centres undefined) | -15% | 3% | -13% | -1% | 4% | . | . | .
O=C(O)c1ccc(/C=N/N2CCN(Cc3cccc4ccccc34)CC2)cc1 | ? | -2% | -16% | -15% | 13% | . | . | .
COc1ccc(-c2cc(CS(=O)(=O)c3ccccc3)on2)cc1 | ? | -2% | -9% | -3%[46.1 µM] | 16% | . | -7% | .
CN(C)C(CNC(=O)c1ccc(-c2ccccc2)cc1)c1ccccc1 (centres undefined) | 11µM* | 1% | -5% | -22% | -7% | . | -17% | .
CC(=O)c1ccc(-n2cc(-c3ccc(C(C)(C)C)cc3)[n+]3c2SCCC3)cc1 | ? | 2% | 8% | ? | ? | . | 7% | .
CCCn1c(N)c(C(=O)COC(=O)COc2ccc(Cl)c(C)c2)c(=O)n(C)c1=O | 10% | 1% | ? | 7% | -9% | . | . | .
Cc1ccc(N(CC(O)COCc2ccco2)S(=O)(=O)c2ccc(C)cc2)cc1 (centres undefined) | -22% | -10% | -5% | -9% | -25% | ? | ? | -3.5%
COc1ccccc1N1C(=O)c2ccccc2NC1c1cc(OC)c(OC)c(OC)c1 (centres undefined) | 1%[46.1 µM] | 5% | 5% | 10%[46.1 µM] | 15% | . | -1% | .
COc1cc(NC(=O)Cn2c(=O)n(C(C)C)c(=O)c3oc4ccccc4c32)cc(OC)c1 | . | . | . | -8%[46.1 µM] | -26% | 18% | . | -1.3%
O=C(CCS(=O)(=O)c1ccc(Cl)cc1)Nc1nnc(-c2cccs2)o1 | -13%[46.1 µM] | -2% | 2% | ? | -2% | . | . | .
COc1ccc(Cn2c(CO)cnc2SCC(=O)Nc2cc(C)on2)cc1 | ? | -5% | 8% | 21%[46.1 µM] | -5% | . | -5% | .
O=[N+]([O-])c1ccc2c(c1)C(O)n1nc(-c3ccc(Cl)cc3Cl)nc1S2 (centres undefined) | 19% | 0% | -5% | 12% | 2% | -24% | 0% | -3.7%
CN1C(=O)/C(=C\c2ccc(N3CCCCC3)o2)C(=O)NC1=S | ? | 1% | -14% | ? | 9% | -13% | 10% | -4.1%
CCCn1nc([N+](=O)[O-])c(C(C#N)c2nc3ccccc3o2)c(Cl)c1=O (centres undefined) | ? | -24% | -12% | ? | 0% | 1% | -36% | -24%
COc1ccc(C)cc1NC(=O)C1CCCN(c2ncnc3onc(C)c23)C1 (centres undefined) | . | . | . | 29%[46.1 µM] | -7% | -8% | . | -0.3%
Cc1ccc(/C=C2/Sc3ccc(C(=O)N4CCN(c5ccccn5)CC4)cc3NC2=O)cc1 | . | 11% | -3% | . | ? | . | 5% | .

Of the compounds above, these contain an aryl thioether with sulfur outside any ring:
SMILES | MARV entry inh | SARS PLP yeast | RE007 growth inh | Lassa entry inh | 2A StopGo | Cruzain noTriton | NS1 function inh | Cruzain inh Det
Cc1nnc(SCCN2CCOCC2)c2nn(-c3ccccc3F)c(C)c12 | ? | 5% | -9% | -10% | -21% | -10% | 4% | -6.5%
Cc1ccccc1OCc1nnc(SCC(=O)Nc2ccc3nc(SCC(=O)NC(C)(C)C)sc3c2)n1C | ? | 2% | 17% | ? | 35µM* | 12% | 3% | 0.0%
COc1ccc(Cn2c(CO)cnc2SCC(=O)Nc2cc(C)on2)cc1 | ? | -5% | 8% | 21%[46.1 µM] | -5% | . | -5% | .

(more compounds)
SMILES | MARV entry inh | SARS PLP yeast | RE007 growth inh | Lassa entry inh | 2A StopGo | Cruzain noTriton | NS1 function inh | Cruzain inh Det
CC(=O)c1c(C)n([O-])c2ccccc2[n+]1=O | -11% | -2% | 5% | -5% | -2% | -5% | -6% | 3.0%
Cc1ccc(/C=C/c2onc(C)c2S(=O)(=O)N2CCC(C(=O)N3CCN(c4cc(C)ccc4C)CC3)CC2)cc1 | . | . | . | ? | -13% | -20% | . | -1.4%
Cc1ccn2c(=O)cc(COc3ccc(NC(=O)COc4ccccc4)cc3)nc2c1 | . | . | . | -17%[46.1 µM] | -10% | 10% | . | 0.7%
CCOC(=O)N1CCN(C(=O)c2ccccc2N(C)S(C)(=O)=O)CC1 | 22% | 2% | -3% | -1% | 10% | -13% | -33% | 4.7%
c1csc(-c2nnc(Cc3cccc4ccccc34)o2)c1 | -2% | 15% | -23% | 10% | 6% | -9% | 0% | -13%
CCSCc1nnc(SCC(=O)Nc2nc3ccccc3s2)n1C | 6% | 2% | 29% | 26% | 28% | -13% | -5% | 3.0%

Screens as filed in PubChem BioAssay.
